Source: PubChem
Rce1 inh = yeast Rce1p protease inhibitors, primary screen, biochemical, fluorescence, cell-free homogeneous; actives 0.27% (n = 290,000); CAAX prenyl protease 2 (Saccharomyces cerevisiae (strain ATCC 204508 / S288c)), Q03530; calls only; yeast membranes, quenched prenylated peptide cleavage fluorescence;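 active = fall in fluorescence gain of 50% or more versus controls, with final raw signal at or below 3038400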;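 also: plate controls were neutral control wells for no effect and wells lacking membranes for full effect; tested at 10 µM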
eIF4H inh = human eIF4H binding inhibitors, primary screen, translation initiation inhibitor project, biochemical, uHTS, fluorescence polarization | Eukaryotic translation initiation factor 4H (Homo sapiens), Q15056 | eIF4H fluorescence polarization binding assay | inhibition, % at 35 µM | actives 0.94% (n = 290,000);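 active = 50% or more with normal probe brightness, or confirmed in later tests; about a fifth of its hits are not listed in these tables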;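 also: calls also rest on retests at 20 µM and on dose response follow-up; 0% = protein and probe with vehicle and 100% = probe without protein; strong numbers were not always called active; many hits fall short of the cut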
HIV Env fusion = inhibitors of HIV-1 Env-driven cell-cell fusion, primary screen, HeLa-JRFL effector, CEM21 target cells, luciferase. inhibition, % at 12.3 µM. actives 1.1% (n = 360,000). AID 651610, 2012;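 active = mean replicate inhibition score of at least 50 and every replicate individually at or above 50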;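 also: 0% = plate neutral controls and 100% = maraviroc near 300 nM; one replicate is shown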
CSC inhib = cancer stem cell viability inhibitors, primary screen, luminescence. actives 1.1% (n = 300,000). AID 2717, 2010. cancer stem cell-like cells viability. inhibition, % at 7.5 µM;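 active = mean at 75% or more and at least half the replicates too; tested in HMLE shEcad cells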;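 also: 0% = median of negative and 100% = median of positive control wells; the first replicate is given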
UUG fidelity = modulators of yeast start codon fidelity, primary screen, whole organism, S. cerevisiae, single point, plate reader; S. cerevisiae UUG-firefly luciferase reporter, luminescence/redox ratio; activity score, % at 18.7 µM; actives 0.13% (n = 350,000); AID 602363, 2012;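 active = replicate mean at a twofold rise or more, about +100% in these data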;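 also: firefly luciferase made from a UUG start codon reports start codon fidelity; reporter light over untreated wells divided by growth signal over untreated wells; some hits fall short of that in this replicate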
PABP FP inh = PABP poly(A) RNA binding inhibitors, primary screen, biochemical, fluorescence polarization, uHTS | Polyadenylate-binding protein 1 (Homo sapiens), P11940 | actives 1% (n = 290,000) | inhibition, % at 35 µM;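 active = 50% or more with normal probe brightness, or confirmed in later tests; about a fifth of its hits are not listed in these tables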;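 also: calls also rest on retests at 20 µM and on dose response follow-up; controls were probe without protein and protein plus probe with vehicle; some compounds called inactive have numbers as strong as hits; many hits fall short of the cut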
Target sequence (P11940 whole entry, looked up): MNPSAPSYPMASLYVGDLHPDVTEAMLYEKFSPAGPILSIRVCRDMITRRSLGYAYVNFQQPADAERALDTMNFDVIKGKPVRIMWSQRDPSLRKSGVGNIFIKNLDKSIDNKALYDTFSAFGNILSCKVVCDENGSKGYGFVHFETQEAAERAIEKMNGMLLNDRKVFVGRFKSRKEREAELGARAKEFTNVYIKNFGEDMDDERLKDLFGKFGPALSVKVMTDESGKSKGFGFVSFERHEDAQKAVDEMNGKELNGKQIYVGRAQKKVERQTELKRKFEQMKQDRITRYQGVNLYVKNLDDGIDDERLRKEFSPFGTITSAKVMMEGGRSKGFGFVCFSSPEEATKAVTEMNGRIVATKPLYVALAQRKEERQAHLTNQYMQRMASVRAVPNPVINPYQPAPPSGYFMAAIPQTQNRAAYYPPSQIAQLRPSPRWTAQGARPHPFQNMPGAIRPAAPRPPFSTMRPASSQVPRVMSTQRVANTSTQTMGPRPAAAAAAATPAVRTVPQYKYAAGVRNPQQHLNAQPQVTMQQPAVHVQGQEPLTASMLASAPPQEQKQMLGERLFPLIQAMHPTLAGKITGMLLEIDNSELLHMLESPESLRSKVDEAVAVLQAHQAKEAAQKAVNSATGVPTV
MT1-MMP act inh = blockers of MT1-MMP proenzyme processing, primary screen, HT1080 RFP-PRO-GFP cells, GFP/RFP fluorescence; Matrix metalloproteinase-14 (Homo sapiens), P50281; GFP/RFP ratio fluorescence, overnight; percent of plate control window, DMSO zero; GFP/RFP ratio change, % at 20 µM; actives 0.061% (n = 360,000);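 active = GFP/RFP ratio change of at least 30% with cell ATP level not reduced by more than half and red fluorescence within 50% of control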; also: strong numbers were not always called active
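Material: RFP-PRO-GFP reporter HT1080 cells. Dosing: single-point 20 µM compound, 1% DMSO. Controls: DMSO and RFP-L50D-GFP cell wells. Timing: cells overnight before dosing, compound overnight, 37 °C, 5% CO2. Measure: GFP/RFP fluorescence ratio.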
MT1-MMP act inh RFP = also measured in MT1-MMP act inh; calls as there; RFP signal change, %; measured here: RFP expression control read;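 0 = vehicle wells; hits needed this value within 50% of zero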
An asterisk follows results filed as active; i = inactive; . = no result given; & = joins results of further samples; [ ] = dose if it differs, or a comment.

SMILES	Rce1 inh	eIF4H inh	HIV Env fusion	CSC inhib	UUG fidelity	PABP FP inh	MT1-MMP act inh	MT1-MMP act inh RFP
Cc1ccc(S(=O)(=O)N2CCCCC2)cc1NC(=O)COC(=O)CN1C(=O)NC2(CC(C)CC(C)(C)C2)C1=O (configuration not stated)	.	.	-2.6	.	33.2	.	-2.5	0.1
CC(=O)NC(C)(CC(=O)c1ccccc1)c1ccccc1 (configuration not stated)	i	.	-0.4	-15.2	11.6	.	0.8	2.5
CCCCn1c(N)c(N(CCOC)C(=O)c2oc3c(Cl)cccc3c2C)c(=O)[nH]c1=O	.	.	-196.7	.	30.3	.	-3.3	-3.6
CSc1nc2cc(Cl)ccc2s1	i	-3.4	-1.9	-4.7	.	2.1	-0.5	4.0
O=C(Nc1ccc2c(c1)OCO2)c1ccc2nc[nH]c2c1	i	10.4	.	-7.7	-18.1	-3.8	1.5	-0.2
CCCCn1c(N)c(N(CC(C)C)C(=O)C2=COCCO2)c(=O)[nH]c1=O	.	.	-2.8	-2.8	-6.9	.	-0.1	1.1
COc1cccc(/C=N/NC(=O)c2cc3cc([N+](=O)[O-])ccc3s2)c1O	i	23.7	-11.7	106.1*	-16.6	-9.4	0.3	-12.8
CCNC(=S)N1CCc2cc(OC)c(OC)cc2C1COc1ccc(F)cc1 (configuration not stated)	i	-11.0	-0.6	-5.5	-23.3	15.5	3.4	-0.1
O=C(CN1CCN(Cc2ccccc2)CC1)Nc1ccccc1-c1ccccc1	i	-1.6	-34.5	42.0	.	-3.9	-3.2	-2.2
CC(=O)Nc1ccc(S(=O)(=O)NCCC(=O)OCC(=O)c2cc(C)ccc2C)cc1	.	.	-25.7	.	2.7	.	0.3	4.1
O=C(Oc1ccc(Cl)cc1)c1ccc2nccnc2c1	i	-1.8	-6.4	-4.7	-12.6	0.1	1.9	6.3
COc1cc(S(=O)(=O)NCCOC23CC4CC(CC(C4)C2)C3)c(OC)cc1Cl	i	3.4	32.9	35.7	.	4.3	-4.3	-28.6
CC1(C(=O)N2CCN(C(=O)c3ccco3)CC2)CCN1Cc1ccccc1OC(F)F (configuration not stated)	.	.	13.0	.	-21.7	.	1.2	5.5
COc1ccc(NC(=O)NNC(=O)COc2ccc3ccccc3c2)cc1OC	i	0.6	2.3	-21.7	8.5	-7.3	2.3	1.3
O=C(CCCN1C(=O)/C(=C/c2ccc(F)cc2)SC1=S)NC1CCS(=O)(=O)C1 (configuration not stated)	i	-6.3	-4.3	-7.9	-23.4	3.8	1.7	-4.6
O=[N+]([O-])c1cc2ccccc2c(O)c1O	.	.	-2.3	.	-14.8	.	2.8	10.7
CCCNC(=O)CNC(=S)N(Cc1ccccc1F)C1CCCCC1	i	2.7	3.6	-6.5	-17.9	9.2	-0.5	-2.9
COc1ccc(-n2c(SCC(=O)NCc3ccco3)nc3sc4c(c3c2=O)CCN(C)C4)cc1	i	43.6	-6.0	-9.0	-4.1	-0.5	-13.0	1.8
CCN(CC)C1CCN(c2nc3nonc3nc2NCCOC)C1 (configuration not stated)	i	-7.1	14.0	-10.9	-5.8	1.9	-0.1	1.7
O=C(CSc1nccn1Cc1ccco1)Nc1cccc(F)c1	i	-3.3	-23.6	-3.1	-8.9	5.0	5.3	-1.6
C[C@H](CO)N1C[C@H](C)[C@H](CN(C)C(=O)Nc2ccc(C(F)(F)F)cc2)Oc2ncc(Br)cc2C1=O	.	.	6.7[16.7 µM]	.	8.2&12.7	.	2.6	8.6
CC(C)CCN(N=O)[C@@H](Cc1ccccc1)CN(N=O)[C@@H](Cc1ccccc1)CN(C)N=O	i	-0.9	92.7*	-25.7	-22.8	-0.6	-6.4	-7.6
C[C@H](CO)N1C[C@H](C)[C@@H](CN(C)CC2CCCCC2)Oc2ccc(NC(=O)Cn3cnnn3)cc2C1=O	.	.	10.3[16.7 µM]	.	-12.4&-17.6	.	3.4	1.3
COCCCNc1nc2c([nH]1)c(=O)[nH]c(=O)n2C	i	-4.4	.	12.3	-19.7	-7.4	-4.0	1.4
CCCN1C(=O)/C(=C\c2ccncc2)SC1=Nc1ccccc1	i	-9.6	.	.	.	3.4	1.7	-16.6

(cont.)
SMILES	Rce1 inh	eIF4H inh	HIV Env fusion	CSC inhib	UUG fidelity	PABP FP inh	MT1-MMP act inh	MT1-MMP act inh RFP
CCS(=O)(=O)N1CCN(C(=O)c2cc(OC)cc(OC)c2)CC1	i	6.4	.	1.6	-35.8	-3.3	3.4	0.0
COc1cccc(NC(=O)CNC(=O)c2ccc([N+](=O)[O-])cc2)c1	i	-4.3	-9.7	-9.3	.	4.8	-1.9	-0.6
CCc1nnc(NC(=O)Cc2ccc(OCc3c(C)noc3C)cc2)s1	i	6.9	45.8	-14.3	-1.2	0.7	0.9	2.5
CC(=O)N1c2c(cc(Br)cc2S(=O)(=O)N2CCN(c3ccccn3)CC2)CC1C (configuration not stated)	i	-15.7	6.3	-9.6	3.3	-3.7	-12.2	-5.1
O=C(CC12CC3CC(CC(Br)(C3)C1)C2)NC1CCCC1	i	-3.2	-15.1	-4.1	-18.8	0.8	-1.3	-0.1
Cc1c(Cl)cccc1NC(=O)CSc1nnc(C)n1-c1ccccc1	i	4.3	-23.7	-8.3	-0.5	5.7	2.4	0.0
CN(Cc1ccco1)C(=O)Cn1nc(-c2ccc(Cl)cc2)ccc1=O	i	-4.9	4.2	-4.4	.	-9.3	-4.5	-4.5
O=C(O)c1cc(S(=O)(=O)NCC2CCCO2)ccc1Cl (configuration not stated)	i	-9.6	-12.0	-0.1	-13.4	20.1	2.4	-0.2
CCN(CC)CCNCc1cc(Cl)c(OCC(=O)Nc2ccccc2)c(OC)c1	i	4.8	0.2	-1.0	.	6.0	6.9	4.9
CCc1nc2c(OCc3ccccc3)cccn2c1N(C)C(C)=O	.	.	-29.7	.	5.6	.	2.0	-4.4
CN1CCN(C2=NC(=O)/C(=C/c3cn[nH]c3-c3ccccc3)S2)CC1	i	0.4	6.1	52.1	.	4.3	-7.9	-7.4
CCCN(S(=O)(=O)c1ccccc1F)S(=O)(=O)c1ccccc1Br	i	-2.8	37.4	1.3	.	1.9	-0.6	1.6
CN(C)S(=O)(=O)c1cccc(COC(=O)C2=COCCO2)c1	i	-5.7	-38.5	-2.3	-2.2	-2.5	-3.1	-3.2
On1c(-c2ccccc2)nc2ccc(Cl)cc21	i	0.4	-74.4	-16.6	-19.4	5.2	-1.4	-3.6
CC(C)CNC(=O)CSc1nc(-c2cccs2)cc(C(F)(F)F)n1	i	-1.4	26.9	-6.8	-20.8	-2.3	-10.6	-6.4
N#CCC(=O)Nc1ccc(C(=O)OCC(=O)NNC(=O)c2ccc(Cl)cc2)cc1	i	.	-6.9	-1.7	1.2	.	-9.4	2.4
CC1(C(=O)Nc2ccc3c(c2)OCCO3)CCC(=O)N1CCOc1ccccc1 (configuration not stated)	.	.	-11.4	.	-12.5	.	0.2	-1.5
COc1ccc(S(=O)(=O)N2CCCC(C(=O)NCCc3ccccc3)C2)cc1 (configuration not stated)	i	-4.2	9.3	.	-5.2	0.6	-7.9	-2.2
COc1ccc(C2=NOC(C(=O)NCc3ccco3)C2)cc1OC (configuration not stated)	i	4.3	-10.0	53.0	.	-4.1	4.2	-10.1
Cc1cc(C)cc(NC(=O)CCn2ccnc2C)c1	i	8.0	.	-5.3	-6.7	16.8	4.8	3.7
CSc1nc(N(C)NC(=O)c2ccccc2)c2ccccc2n1	i	-11.9	.	.	.	-4.3	5.7	-9.9
CN(C)/C=C/C(=O)/C=C/c1ccc(Cl)cc1Cl	i	-1.3	-64.6	.	.	0.7	-1.2	1.8
O=C(CSc1nc2ccccc2c(=O)n1-c1ccccc1Cl)NC1CCS(=O)(=O)C1 (configuration not stated)	.	.	9.2	.	-0.2	.	-1.1	-1.1
Cc1ccc(C(=O)NCc2ccccc2F)cc1S(=O)(=O)N1CCCC1	i	-3.8	-6.8	-7.3	-1.4	-1.9	1.7	2.7
CC(C)CNC(=O)c1noc2c1CCCC2	i	-6.4	-14.9	4.0	-5.4	1.2	-0.7	5.4

Record cards (already shown):
CC(C)CNC(=O)c1noc2c1CCCC2 as listed: Rce1 inh: i; eIF4H inh: -6.4; HIV Env fusion: -14.9; CSC inhib: 4.0; UUG fidelity: -5.4; PABP FP inh: 1.2; MT1-MMP act inh: -0.7; MT1-MMP act inh RFP: 5.4
CN(C)/C=C/C(=O)/C=C/c1ccc(Cl)cc1Cl as listed: Rce1 inh: i; eIF4H inh: -1.3; HIV Env fusion: -64.6; CSC inhib: .; UUG fidelity: .; PABP FP inh: 0.7; MT1-MMP act inh: -1.2; MT1-MMP act inh RFP: 1.8
CC(C)CNC(=O)CSc1nc(-c2cccs2)cc(C(F)(F)F)n1 as listed: Rce1 inh: i; eIF4H inh: -1.4; HIV Env fusion: 26.9; CSC inhib: -6.8; UUG fidelity: -20.8; PABP FP inh: -2.3; MT1-MMP act inh: -10.6; MT1-MMP act inh RFP: -6.4

(further entries)
SMILES	Rce1 inh	eIF4H inh	HIV Env fusion	CSC inhib	UUG fidelity	PABP FP inh	MT1-MMP act inh	MT1-MMP act inh RFP
CCC(=O)N(Cc1ccccc1)c1ccccn1	i	-2.1	-49.8	-5.3	-11.7	0.7	1.3	7.2
O=C(NCCNC(=O)c1ccc(Cl)cc1Cl)c1ccco1	i	4.8	-4.0	.	3.2	1.4	3.0	4.6
CCOc1cccc2c1OC1(C)CC2NC(=O)N1c1ccc(OC)cc1 (configuration not stated)	i	2.3	.	18.9	-19.3	-4.0	2.7	1.0
CCOC(=O)c1ccc(N2C(=O)CC(NC3CCN(C(=O)c4ccc(F)cc4)CC3)C2=O)cc1 (configuration not stated)	i	8.3	.	14.6	-22.2	1.5	1.7	7.0
CCCCCc1ccc(C2=NNC(=O)CC2)cc1	i	1.2	-83.3	-8.5	-7.7	2.1	6.1	3.2
C=CCNC(=O)c1cccc(NS(=O)(=O)c2ccc(Cl)cc2)c1	i	0.5	-18.4	9.1	.	-3.9	4.0	3.1
CC(C)(C)C(=O)OC/C(N)=N/OC(=O)c1ccccc1	i	-0.7	7.2	-4.5	-8.8	3.3	3.3	4.4
CC(=O)c1sc(NC(=O)C2COc3ccccc3O2)nc1C (configuration not stated)	i	-4.3	21.4	-9.4	-69.1	-1.5	0.6	-5.4
NS(=O)(=O)c1ccc(NC(=O)CSc2nnc(COc3ccccc3Cl)n2C2CC2)cc1	.	-11.1	.	-7.4	-11.9	-4.2	3.2	-3.1
CN1C(=O)NC(c2ccccc2)C2=C1CN(c1cccc(C(F)(F)F)c1)C2=O (configuration not stated)	i	3.3	-24.0	.	-7.2	-5.0	-4.1	-4.4
O=C(CCCN1C(=O)/C(=C/c2cccs2)SC1=S)Nc1cccc(C(=O)O)c1	i	-1.2	-1.3	-4.3	.	-6.1	1.0	0.0
Cc1cc(NC(=O)Nc2ccc(F)cc2F)n(C)n1	i	4.9	13.6	-3.3	.	-6.7	2.4	5.7
Cc1ccc(N2CCN(C(=O)C3CCC(=O)N(Cc4ccc(Cl)cc4)C3)CC2)c(C)c1 (configuration not stated)	i	-7.2	28.0	.	-5.3	-7.0	6.9	-9.1
Cc1ccc(S(=O)(=O)NCC(c2ccc3c(c2)OCO3)N2CCOCC2)cc1 (configuration not stated)	i	.	7.9	-17.5	.	.	-0.2	2.3
OC(CN1CCN(c2cccc(Cl)c2)CC1)c1ccccc1 (configuration not stated)	i	-5.0	15.2	0.8	-11.7	-5.5	3.0	5.2
CCCCN(C(=O)CSc1nnc2ccccn12)c1c(N)n(Cc2ccccc2)c(=O)[nH]c1=O	i	12.0	0.0	-11.6	.	6.4	-3.2	0.2

Not all compounds are listed; the hit share may differ from the screen's.
